Screening data from PubChem.
VDR inh: vitamin D3 receptor (human) inhibition. P11473. VDR-SRC2-3 peptide fluorescence polarization, 2 h. Potency, µM, without a hit: max response, negative = inhibition, hits mostly inhibitors. 0.93% of 400,000 active; active means well fitted inhibition curve with a large enough effect; inconclusive means small, poorly fitted or top-dose-only effect, or another doubt; inactive means no such curve, though single readings can be large or run the other way; further: series mostly up to about 120 µM
Target sequence (P11473 whole entry, looked up): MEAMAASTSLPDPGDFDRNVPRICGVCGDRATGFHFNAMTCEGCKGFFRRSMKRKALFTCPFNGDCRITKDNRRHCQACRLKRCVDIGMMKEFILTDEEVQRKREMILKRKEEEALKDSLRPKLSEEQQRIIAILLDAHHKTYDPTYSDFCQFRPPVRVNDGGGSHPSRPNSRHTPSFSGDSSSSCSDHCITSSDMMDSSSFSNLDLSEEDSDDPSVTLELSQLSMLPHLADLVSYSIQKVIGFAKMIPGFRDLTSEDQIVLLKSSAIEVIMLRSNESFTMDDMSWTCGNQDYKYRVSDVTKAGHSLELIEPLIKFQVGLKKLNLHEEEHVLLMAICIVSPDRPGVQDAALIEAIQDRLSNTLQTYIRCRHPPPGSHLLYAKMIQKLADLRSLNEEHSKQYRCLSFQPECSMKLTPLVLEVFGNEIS
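Signal is fluorescence polarization, reporting how far test compounds block the interaction of VDR with the SRC2-3 coregulator peptide after a 2 h room-temperature incubation.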
The depositor's hits bear a star; ? = inconclusive; & = joins results of further samples. On the % scale 0 is the no-effect control and ±100 the full control effect; potency means the concentration at half of the fitted maximal effect. Only part of the results is shown, so the mix of outcomes need not match the whole.

SMILES	VDR inh
CN(Cc1nc(CC2CC2)no1)CC12CC3CC(CC(C3)C1)C2	-18.3%
CC(CCc1ccco1)NC(=O)c1cccc2c1C(=O)N(C1CCCCC1)C2 (centres undefined)	-20.1%
Cc1ccc(C(=O)N(C)CCOc2ccccc2)cc1S(=O)(=O)N1CCCCC1	-12.2%
O=C(Nc1ccc2c(c1)CCC2)c1ncoc1-c1ccccc1F	-11.6%
Cc1ccc(-c2cc3ccccc3nc2N)cc1	0.7%
C/C(=N\NC(=O)c1c(Cl)cnn1C)c1ccc(NC(=O)c2ccc(Br)o2)cc1	-7.5%
COc1ccc(OCCCCn2c(C3CC(=O)N(c4cccc(Cl)c4)C3)nc3ccccc32)cc1 (centres undefined)	9.5%
Cc1ccc(SCc2c(-c3ccccc3)nn(C)c2Cl)cc1	-2.7%
COC(=O)c1ccc(CSc2nnc(NCc3ccccc3)s2)o1	5.0%
Cc1c(OCC(=O)N2CCC(C(N)=O)CC2)ccc2c3c(c(=O)oc12)CCCC3	-2.3%
COc1ccc(CCNC(=O)C2CCN(C(=O)c3ccc(Cl)cc3)CC2)cc1	-7.6%
COc1ccccc1-c1nnc(SCC(=O)NCc2cccs2)n1N	-5.2%

Another view of some results above:
smiles: COC(=O)c1ccc(CSc2nnc(NCc3ccccc3)s2)o1
  VDR inh: 5.0%

smiles: Cc1c(OCC(=O)N2CCC(C(N)=O)CC2)ccc2c3c(c(=O)oc12)CCCC3
  VDR inh: -2.3%

Back to the main list, starting five compounds before the break.
SMILES	VDR inh
Cc1ccc(SCc2c(-c3ccccc3)nn(C)c2Cl)cc1	-2.7%
COC(=O)c1ccc(CSc2nnc(NCc3ccccc3)s2)o1	5.0%
Cc1c(OCC(=O)N2CCC(C(N)=O)CC2)ccc2c3c(c(=O)oc12)CCCC3	-2.3%
COc1ccc(CCNC(=O)C2CCN(C(=O)c3ccc(Cl)cc3)CC2)cc1	-7.6%
COc1ccccc1-c1nnc(SCC(=O)NCc2cccs2)n1N	-5.2%
COc1ccc(CN2CCNC(=O)C2CC(=O)NCCc2nc(C)c(C)s2)c(OC)c1 (centres undefined)	-3.5%
Cc1ccnc(SCCn2c(N3CC(C)OC(C)C3)nc3c2c(=O)n(C)c(=O)n3C)n1 (centres undefined)	9.6%
COCc1cc(C)nc(N2CCOCC2)c1C#N	13.7%
Clc1ccc(/C=N/Nc2nnc(-c3ncc[nH]3)c3ccccc23)cc1	-10.1%
C=CCNC(=O)C1CC2Cn3c(nc4cc(Cl)c(Cl)cc43)C2N1C (centres undefined)	-5.7%
CCCC(C)NC(=O)c1cccc(Oc2ccccc2)c1 (centres undefined)	9.3%
CCN(CC)S(=O)(=O)c1cccc(C(=O)OCC(=O)NCc2ccccc2OC)c1	-13.8%
CCOC(=O)C1CCN(C(=O)c2cccnc2Oc2ccc(Cl)cc2)CC1	-6.6%
CCOc1ccc(S(=O)(=O)NCc2csc(C)n2)cc1	11.1%
CCCc1cc(=O)[nH]c(SCC(=O)N2CCN(S(=O)(=O)c3ccc4ccccc4c3)CC2)n1	6.5%
COc1ccc(C2CC(=O)Oc3c(C(CCN4CCCC(C)C4)c4cc(OC)c(OC)c(OC)c4)c(OC)cc(OC)c32)cc1 (centres undefined)	-7.9%
Cc1ccc(C)c(N2CCN(S(=O)(=O)c3cn(C)cn3)CC2)c1	5.0%
O=C(C=Cc1cccs1)c1ccccc1	?
Cc1cc(C)cc(Oc2ccccc2/C=C\C(=O)O)c1	13.1%
COc1ccc(CCNC(=O)c2ccc3c(c2)sc2nc(-c4ccc(C)cc4)cn23)cc1OC	8.4%
O=c1c(-c2ccc(F)cc2)nc2cnc(Oc3ccccc3)nc2n1C[C@H]1CCCO1	-19.2%
COc1cccc(/C=N/n2c(C3CCCCC3)n[nH]c2=S)c1	9.0%
Cc1ccc(NC(=O)COC(=O)[C@@H]2CCCN2C(=O)c2cccs2)cc1S(=O)(=O)N(C)C	23.4%
CCOC(=O)C1=NNC2(CC(=O)N(c3cccc(C)c3)C2=O)C1 (centres undefined)	7.4%
O=C(c1ccc(S(=O)(=O)NCC2CCCO2)cc1)N1CCc2ccccc21 (centres undefined)	-1.7%
C=CC(C)(C)c1c2c(c(O)c3c(=O)c4ccc(O)c(O)c4oc13)C=CC(C)(C)O2	9.4%
CCn1cc(CN2CCC(C(=O)Nc3cccc(-c4cccc(Cl)c4)c3)CC2)c(C)n1	9.0%
CC(Sc1nc(-c2ccccc2)c(C#N)c(=O)[nH]1)C(=O)Nc1ccc(F)cc1 (centres undefined)	0.2%
Cc1cccc(NC(=S)NC2CC3CCCC(C2)N3Cc2cccs2)c1C (centres undefined)	-10.1%

Seven compounds already listed, arranged by their value in VDR inh, highest first:
structure,VDR inh
Cc1ccc(NC(=O)COC(=O)[C@@H]2CCCN2C(=O)c2cccs2)cc1S(=O)(=O)N(C)C,23.4%
Cc1cc(C)cc(Oc2ccccc2/C=C\C(=O)O)c1,13.1%
CCn1cc(CN2CCC(C(=O)Nc3cccc(-c4cccc(Cl)c4)c3)CC2)c(C)n1,9.0%
COc1ccc(CCNC(=O)c2ccc3c(c2)sc2nc(-c4ccc(C)cc4)cn23)cc1OC,8.4%
CC(Sc1nc(-c2ccccc2)c(C#N)c(=O)[nH]1)C(=O)Nc1ccc(F)cc1 (centres undefined),0.2%
Cc1cccc(NC(=S)NC2CC3CCCC(C2)N3Cc2cccs2)c1C (centres undefined),-10.1%
O=c1c(-c2ccc(F)cc2)nc2cnc(Oc3ccccc3)nc2n1C[C@H]1CCCO1,-19.2%

Going on with the list:
SMILES	VDR inh
CCOC(=O)c1c(C)nn(Cc2ccccc2)c1N	8.1%
CC(=O)NC(=S)Nc1ccc(S(=O)(=O)Nc2ncccn2)cc1	2.7%
COC(=O)c1ccccc1NC(=O)C1CCN(S(C)(=O)=O)CC1	7.6%
CCOc1ccc(C(C)=O)cc1CN1C(=O)NC2(CCCCCCC2)C1=O	-21.0%
Cc1noc(N)c1C1(O)C(=O)N(C(C)C)c2ccccc21 (centres undefined)	10.3%
Cc1ccc(CNC(=O)CSc2c3c(nc4cc(Cl)ccc24)CCCC3)cc1	-13.3%
COc1cc(OC)cc(C(=O)Nn2cc(C(=O)Nc3ccc(F)cc3F)c3ccccc3c2=O)c1	5.6%
CC(C)(C)c1ccc(CSc2nnc(-c3ccccc3NC(=O)c3ccccc3)o2)cc1	-4.2%
CCCCOc1ccc(CNC(=O)Cn2ncn3c(cc4cc(F)ccc43)c2=O)cc1	-2.5%
O=C(COC(=O)c1ccccc1Br)NCCN1C(=O)CSC1=O	-4.0%
CCC(=O)N1CCc2cc(S(=O)(=O)CCC(=O)Nc3ccc(OC)cc3)ccc21	-10.6%
O=C(N/N=C\C=C\c1ccc2c(c1)OCO2)C1COc2ccccc2O1 (centres undefined)	-5.8%
COC(=O)c1sccc1S(=O)(=O)N(CC(=O)NCc1ccccc1)c1ccccc1	-7.4%
Cc1ccc2nc(NNC(=O)c3ccc(S(=O)(=O)N4CCc5ccccc5C4)cc3)sc2c1	13.8%
CN(c1ccccc1)S(=O)(=O)c1ccc(C(=O)NCc2ccco2)cc1	2.0%
COc1ccc(NC(=O)COc2cccc3c2CCN(Cc2cccnc2)C3=O)cc1	-20.3%
CC(C)(C)C(=O)NC(=S)N1CCCC1	-14.4%
O=C(c1ccc(CN2CCOCC2)cc1)N1CCN(c2ccccc2F)CC1	-8.1%
COc1cc(OC)cc(C(=O)NCC(=O)OCC(=O)N2CC(C)CC(C)C2)c1 (centres undefined)	-7.1%
O=C(c1ccco1)N1CCN=C1SCc1cccc(Cl)c1	-28.9%
c1nnn(C23CC4CC(CC(C4)C2)C3)n1	10.8%
O=C(CCn1c(=O)c2cccn2c2cccnc21)NCc1ccccc1Br	17.4%
CC(Oc1cc2oc(=O)c3c(c2cc1Cl)CCC3)C(=O)NCCCN1CCCC1=O (centres undefined)	2.5%
CC1=NNC(=O)C1CCC(=O)N/N=C/c1ccc(Cl)cc1 (centres undefined)	0.5%
O=C(Oc1cccc(N2C(=O)CCC2=O)c1)c1ccccc1	-1.3%
Cn1c(=O)c2[nH]c(CNc3ccc(C(=O)O)cc3)nc2n(C)c1=O	-16.7%
O=C(NCc1cccnc1)c1ccccc1NS(=O)(=O)c1ccc(F)cc1	-9.0%
O=C(c1ccc(S(=O)(=O)N2CCCC2)cc1)N(c1ccc(F)cc1)C1C=CS(=O)(=O)C1 (centres undefined)	-19.0%
O=[N+]([O-])c1ccccc1N=Nc1c(O)[nH]c2ccc(F)cc12	3.0%
O=C(O)c1cc(-c2ccc(Cl)cc2)n(-c2cccc(Cl)c2)n1	-11.6%
COc1ccc(C2N=C(c3ccccc3)C(C)(C)N2O)cc1 (centres undefined)	10.6%
O=C(Nn1cnnc1)c1ccc(Cl)cc1[N+](=O)[O-]	-12.3%
O=[N+]([O-])c1ccc2c(c1)c(-c1ccccc1)nc1nncn12	-12.8%
NS(=O)(=O)c1cccc(NC(=O)c2cccc(S(=O)(=O)N3CCCCCC3)c2)c1	?
Cc1ccccc1-n1c(O)c(/C=C/C=Nc2ccccc2)c(=O)[nH]c1=O	6.6%
Cc1cc2c(cc1S(=O)(=O)NCc1ccc(N(C)C)cc1)OCC(=O)N2	-6.5%&11.5%
COc1cc(C=O)ccc1OCCOCCOc1cc(C)ccc1Cl	6.7%
COc1ccccc1CCNC(=O)CSc1ccc(-c2ccco2)nn1	-11.3%
CSc1n[nH]c(NCc2ccc(Cl)cc2)n1	13.3%
COc1cc(OC)c(NC2=C(c3ccc(C(F)(F)F)cc3)C(=O)c3ccccc32)cc1Cl	9.1%
Cc1cc(C(=O)N/N=C/c2ccc(Cl)c([N+](=O)[O-])c2)c(C)n1-c1ccc(F)cc1	6.4%
O=C(c1cc(-c2cccs2)on1)N1CCc2ccccc2C1	9.3%
CN(C)c1cccc2c1c(NC(=O)Nc1ccccc1)nn2C	12.6%
Cc1ccc(C(=O)OCC(=O)NCCc2ccc(F)cc2)cc1S(=O)(=O)N1CCOCC1	-3.9%
c1coc(-c2nnc(SCc3cn4ccccc4n3)o2)c1	6.2%
CCN1CCC[C@H]1CNC(=O)c1c(OC)ccc(Br)c1OC	-3.5%&12.0%&3.7%&19.4%
O=S(=O)(c1ccccc1)N(CC1CO1)c1cc(Cl)ccc1Cl (centres undefined)	12.5%
OC[C@@H](O)[C@@H](O)[C@H](O)[C@@H](O)CO	-15.2%
O=C(COc1ccc(Cl)c(Cl)c1)NN1C(=O)C2C(C1=O)C1C=CC2C12CC2 (centres undefined)	16.9%
CC(C)OCCCNC(=O)CN1CCN(Cc2ccc(Cl)cc2)C1=O	-12.8%
Cc1ccc2c(CSc3nnc(C4CC4)n3N)cc(=O)oc2c1	-17.4%
CC(C)(C)c1ccc(-c2nc(SCC(=O)Nc3ccccc3F)n3[nH]c(=O)cc3n2)cc1	1.4%
COc1cccc(OCc2nn3c(=O)c(-c4ccccc4)nnc3s2)c1	-5.7%
CC(C)c1ccc(S(=O)(=O)Nc2ccc(N3CCOCC3)cc2)cc1	5.2%
COc1ccc(NC(=O)C(NC(C)=O)C(=O)NCc2ccccc2)cc1 (centres undefined)	-4.1%
COc1ccc(C=CC(=O)C=CC=Cc2ccccc2)cc1	?
Cc1ccc(NC(=S)Nc2ncccc2C)c(C)c1	-10.8%
CCOc1cc(N2CCOCC2)c(OCC)cc1NC(=O)CN1C(=O)NC(C)(c2ccc(OC)cc2)C1=O (centres undefined)	0.8%
O=C(Cn1nnc(-c2ccc(Cl)cc2)n1)NC1CC2CCC1C2 (centres undefined)	14.9%
COc1ccc(C(=O)NNC(=O)c2cccc3ccccc23)cc1	3.5%
Next results
SMILES	VDR inh
O=C(COc1ccccc1)NC(NC(=S)Nc1ccccc1O)C(Cl)(Cl)Cl (centres undefined)	-9.6%
CC(C)C(=O)NCc1cc(-c2ccccc2)no1	16.2%
O=C(COC(=O)COc1ccc(Br)cc1)NCc1ccccc1	-0.8%
CC(OC(=O)CSc1ccccc1)C(=O)NC1CCCCC1C (centres undefined)	-8.1%
C/C(=N\NC(=O)c1nnn(-c2nonc2N)c1C(C)C)c1cc(C)sc1C	21.1%
C=CCSc1ncc(C(=O)OCC)c(N)n1	-5.4%
O=C(Cn1cccc1C(=O)c1ccccc1)NCCc1ccc(Cl)cc1	-17.1%
CCOc1ccc(-n2c(C)nc3cc(C(=O)NC4CCCC4)ccc32)cc1	16.0%
CC1CCN(C(=O)C2CCC(C)(C(=O)O)C2(C)C)CC1 (centres undefined)	2.0%
Cc1cccn2c(=O)c(/C=C(\C#N)C(N)=O)c(N3CCCCCC3)nc12	-6.7%
CCOc1ccc(-c2cn(-c3ccc(OC)cc3)c(SCC(=O)Nc3ccccc3Cl)n2)cc1	0.6%
CCOC(=O)N1CCN(C(=O)CN(c2ccc(Cl)c(C(F)(F)F)c2)S(C)(=O)=O)CC1	1.4%
CC/C(=N/Nc1ccccc1C)c1cnnc(SC)n1	-8.5%
CCC(CO)NCc1cc(OC)c(OCC(=O)NCCc2ccccc2)cc1Br (centres undefined)	-15.6%
COc1cc(OC)c(C(=O)O/N=C(\N)c2ccccn2)cc1OC	1.5%
Cc1ccc(Sc2cnccc2C#N)cc1	-1.6%
CC(C)(CO)NCC(O)Cn1cc(C=O)c2ccccc21 (centres undefined)	-14.1%
C=C1C(C(=O)Nc2ccc(OC)cc2)C1C(=O)Nc1ccc(OC)cc1 (centres undefined)	-8.2%
Cc1ccc(C)c(NC(=O)CN2C(=O)c3cccc4cccc2c34)c1	-0.5%
O=C(COC(=O)c1ccccn1)Nc1ccccc1Cl	-5.1%
COc1ccccc1CC(=O)NC1CCN(Cc2ccccc2)CC1	1.4%
Cc1ccc(OCC(=O)Oc2cccc(C)c2C)cc1	-3.5%
CCCC(=O)Nc1ccccc1-c1nnc(SCC)[nH]c1=O	-11.1%
Cc1sc2ncn(CC(=O)NCCCC(=O)N3CCN(c4ccccc4)CC3)c(=O)c2c1C	-6.4%
CSc1cccc(NC(=O)C2CCN(S(=O)(=O)c3ccc4c(c3)NC(=O)CO4)CC2)c1	-1.8%
O=c1c2ccccc2n(Cc2ccccc2Cl)c(=O)n1CCc1ccccc1	-2.9%
